HCMV UL50-53 inh = inhibitors of HCMV UL50-UL53 nuclear egress complex interaction; HTRF UL50-UL53 interaction, normalized percent inhibition; inhibition, % (concentration not given with the values); 0.15% of 190,000 active;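 active = both replicates at 50% or more, plus weaker picks with an unusually low signal ratio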;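 also: stock transfer was 100 nL into about 20 µL; 0% = negative control wells and 100% = wells with untagged competitor protein; inactives centre near -12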
Sa growth inh = S. aureus growth inhibition; S. aureus RN4220 growth, OD600, 20 h, 42 °C; active compounds read low; relative growth, % (test concentration not listed); 0.53% of 170,000 active; AID 720641;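 active = growth at 42 °C up to 50% and 20 or more points under that at 30 °C, or under 10% at both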;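 also: 300 nL library stock went into each well; scaled to the means of positive and negative controls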
GIV-Gai inh = inhibitors of GIV GBA-motif binding to rat Galpha-i3; percent of control (FP), % (test concentration not listed); 0.42% of 210,000 active; P08753; Galpha-i3/FITC-GIV peptide fluorescence polarization, 90 min; active compounds read low; scaled: aluminum fluoride 0%, vehicle 100%; AID 1224905;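 active = replicate mean at 85% of control or lower, very high polarization wells dropped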;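 also: lower values mean more displacement of the GIV peptide from Galpha-i3; wells of about 15 µL received 100 nL stock; the first replicate is given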
Target sequence (P08753 whole entry, looked up): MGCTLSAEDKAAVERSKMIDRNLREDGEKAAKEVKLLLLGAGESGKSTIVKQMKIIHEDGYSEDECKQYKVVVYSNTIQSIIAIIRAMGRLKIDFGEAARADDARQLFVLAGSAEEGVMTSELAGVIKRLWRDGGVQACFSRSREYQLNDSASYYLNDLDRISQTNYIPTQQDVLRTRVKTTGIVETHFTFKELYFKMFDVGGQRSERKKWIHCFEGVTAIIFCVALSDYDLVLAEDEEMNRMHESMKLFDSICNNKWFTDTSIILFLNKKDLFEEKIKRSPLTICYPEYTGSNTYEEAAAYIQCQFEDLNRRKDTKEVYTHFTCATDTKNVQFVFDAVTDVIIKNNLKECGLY
Sa growth inh second temp = recorded beside Sa growth inh, whose call it bears; relative growth, %; measured here: growth at 30 °C;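 optical density after 20 h as mean of two plates; 100% = untreated growth and lower means inhibition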
Starred values were filed as active, the others as inactive; x = not tested or not shown; & = joins results of further samples.

SMILES	HCMV UL50-53 inh	Sa growth inh	Sa growth inh second temp	GIV-Gai inh
CCOc1ccc(S(=O)(=O)N(CC(=O)Nc2ccc3c(c2)OCO3)c2ccc(C)cc2)cc1	-27	96	89	102
Cc1cc(NC(=O)C2C3C=CC(C3)C2C(=O)O)no1 (centres undefined)	1	109	83	101
O=C(Nc1ccccc1)c1cnc2sc3c(n2c1=O)CCCC3	-8	x	x	107
Fc1ccccc1Oc1ncnc2c1oc1ccccc12	x	94	90	99
Cn1c(CCN(Cc2ccco2)S(=O)(=O)c2ccc(Cl)cc2)n[nH]c1=S	-29	87	94	107
Cc1ccc2cc(-c3noc(CCC(=O)Nc4nccs4)n3)c(=O)[nH]c2c1	-13	x	x	108
CCCn1cnc2nc(CSc3ccccc3NC(=O)Nc3cccc(Cl)c3C)cc(=O)n21	-21	x	x	101
Cc1cccc(N(CC(=O)NCCSCc2ccc(Cl)cc2)S(C)(=O)=O)c1C	-35	87	66	106
Cn1c(=O)n(CC(=O)O)c(=O)c2c1nc1n2CCN1c1ccccc1	-10	x	x	96
O=C(/C=C/c1ccc(Br)o1)OCC(=O)N1CCCc2ccccc21	-43	116	84	x
COc1ccc2[nH]cc(CCN=C(NC(=O)c3ccccc3C)Nc3nc(C)cc(C)n3)c2c1	4	107	102	110
CC(C)NC(=O)c1scc(S(C)(=O)=O)c1Cl	-6	97	90	100
CC(C)Oc1ccccc1NC(=O)c1cccc(C(=O)Nc2ccccc2OC(C)C)c1	8	104	94	102
Cc1c(C(=O)N(C)Cc2ccccc2)sc2nc(-c3ccccc3)cn12	-11	97	46	109
CCOC(=O)CCN(Cc1ccccc1)S(=O)(=O)c1csc(C(N)=O)c1	x	108	89	101
CN(C)c1ccc(C(CNS(=O)(=O)CCc2ccccc2)N(C)C)cc1 (centres undefined)	-16	x	x	103
Brc1cccc(-c2nnc(CN3CCOCC3)o2)c1	x	110	91	112
CCn1c(=O)cc(N2CCOCC2)[nH]c1=O	-14	99	94	107
CCC(=O)Nc1nn(C)c2cccc(F)c12	5	107	97	96
Cc1[nH]c(=O)[nH]c(=O)c1S(=O)(=O)NC1CCCC1	0	x	x	111
CN1C(=O)CN(S(C)(=O)=O)CC1(C)C(=O)NCC(=O)NCCC1=CCCCC1 (centres undefined)	-9	x	x	107
O=C(NCCOC12CC3CC(CC(C3)C1)C2)c1cccc(Br)c1	0	107	102	x
Cc1oc(-c2ccccc2F)nc1CN1CCC(C(=O)NCCc2ccccc2)CC1	-32	107	90	105
CCc1ccc(NC(=O)Nc2cc(C(=O)NCc3ccc(C)cc3)ccc2N2CCOCC2)cc1	-3	x	x	109
CCOc1ccc(CN(C)Cc2nc(N)nc(Nc3ccc(C)cc3)n2)cc1	-16	89	81	x

Sorted by number of heavy atoms (highest first): part of the list above
SMILES	HCMV UL50-53 inh	Sa growth inh	Sa growth inh second temp	GIV-Gai inh
COc1ccc2[nH]cc(CCN=C(NC(=O)c3ccccc3C)Nc3nc(C)cc(C)n3)c2c1	4	107	102	110
Cn1c(=O)n(CC(=O)O)c(=O)c2c1nc1n2CCN1c1ccccc1	-10	x	x	96
O=C(/C=C/c1ccc(Br)o1)OCC(=O)N1CCCc2ccccc21	-43	116	84	x
Cc1cc(NC(=O)C2C3C=CC(C3)C2C(=O)O)no1 (centres undefined)	1	109	83	101
Cc1[nH]c(=O)[nH]c(=O)c1S(=O)(=O)NC1CCCC1	0	x	x	111
CCn1c(=O)cc(N2CCOCC2)[nH]c1=O	-14	99	94	107

Remaining list, next part:
SMILES	HCMV UL50-53 inh	Sa growth inh	Sa growth inh second temp	GIV-Gai inh
COC(=O)c1cc(NC(=O)C2CCCN(S(=O)(=O)c3c(C)n[nH]c3C)C2)cc(C(=O)OC)c1 (centres undefined)	-3	99	104	102
O=C(C1CCCC1)N1CCN(c2nc3cccnc3s2)CC1	-10	x	x	105
COc1ccc(Cc2c(C)nn(-c3nc(C)c(C(=O)NC(C)C)s3)c2C)cc1	-8	x	x	97
Cc1cc(N2C(=O)CCS2(=O)=O)cc(C)c1S(=O)(=O)NC1CCCC1	-4	x	x	108
COc1ccc(OCC(=O)N2CCN(S(=O)(=O)c3ccc(OC)cc3)CC2)cc1	x	108	80	96
Nc1ccc(C(=O)Oc2ccc(Oc3ccccc3)cc2)cc1	-18	88	89	102
Cc1cc(NC(=O)CN2C(=O)CCc3ccccc32)c2ccccc2n1	-20	x	x	104
CCOC(=O)c1ccccc1NC(=O)CSc1cn(CC(=O)N2CCOCC2)c2ccccc12	x	103	76	110
Cc1nc(C)c2c(c1C(F)(F)F)-c1ccccc1C2(F)F	19	97	95	x
Cc1nc2ccc(S(=O)(=O)NCC(=O)O)cc2s1	-14	108	85	103
CCc1nc2nc(C)cc(Nc3cc(C)ccc3C)n2n1	-7	114	88	107
S=c1nc(-c2ccccc2)n(-c2ccc(Br)cc2)c2c1CCCC2	x	124	84	104
Cc1cc(=O)n2c(n1)NC(=NCc1ccccc1)NC2c1cccnc1 (centres undefined)	0&-7	108	86	101&97
N#Cc1ccccc1NC(=O)CSc1ccccc1	-16	108	84	x
Cc1ccc(CN2C(=O)C(O)(c3c[nH]c4ccccc34)c3cc(Cl)ccc32)cc1 (centres undefined)	-15	89	72	107
Cc1cc(CNC(=O)NC2CCCCC2)c(C)n1-c1ccc(Cl)cc1	-14	x	x	109
CS(=O)(=O)N(CC(=O)O)c1ccc(Cl)cc1	-9	73	115	104
Cc1cc(C)cc(-n2ccn3c(CCCC(=O)O)nnc3c2=O)c1	8	88	97	111
CC(C(=O)NCCCc1ccccc1)N1C(=O)C2CC=CCC2C1=O (centres undefined)	-18	110	88	x
CCCCN(C)CCNC(=O)C1CCN(c2nc3ccc(CC)cc3s2)CC1	-10	109	92	98
CCC(c1nnc(SCc2nnc(-c3ccccc3)o2)n1Cc1ccccc1)N(C)C (centres undefined)	-20	90	84	x
CCOc1cc(C(=O)Nc2cccc3c2C(=O)c2ccccc2C3=O)cc(OCC)c1OCC	-10	x	x	97
Cn1c(=O)oc2cc(S(=O)(=O)Nc3ccc(O)cc3)ccc21	x	105	86	98
CCn1c(=O)cc(SCC(=O)N(C)Cc2ccccc2)c2ccccc21	x	101	88	98
COc1cccc(-c2nnc(-c3ccccc3NC(=O)c3cccc(C(F)(F)F)c3)o2)c1	0	85	94	102

Retrieved one by one from the list above, 3 records:
SMILES	HCMV UL50-53 inh	Sa growth inh	Sa growth inh second temp	GIV-Gai inh
CCCCN(C)CCNC(=O)C1CCN(c2nc3ccc(CC)cc3s2)CC1	-10	109	92	98
CC(C(=O)NCCCc1ccccc1)N1C(=O)C2CC=CCC2C1=O (centres undefined)	-18	110	88	x
CCOc1cc(C(=O)Nc2cccc3c2C(=O)c2ccccc2C3=O)cc(OCC)c1OCC	-10	x	x	97

Next entries
SMILES	HCMV UL50-53 inh	Sa growth inh	Sa growth inh second temp	GIV-Gai inh
CC1CCN(S(=O)(=O)N2CCCC(C(=O)NCCN3CCCCC3)C2)CC1 (centres undefined)	-4	x	x	101
O=C(c1ccc(S(=O)(=O)N2CCCC2)cc1)N1CCC(CN2C(=O)c3cccc4cccc(c34)C2=O)CC1	-45	x	x	102
CCOC(=O)c1c(C)[nH]c(C)c1S(=O)(=O)N1CCCC(C(=O)Nc2ccccc2OCC)C1 (centres undefined)	x	94	97	111
O=C(Nc1cccc(C(F)(F)F)c1)C1CCN(S(=O)(=O)c2ccccc2)CC1	-8	96	79	98
CCc1ccc(NC(=O)CSc2ccc3nnc(-c4ccccn4)n3n2)cc1	x	107	85	103
CCN(c1ccc(OC)cc1)S(=O)(=O)c1nnc(NC(=O)COc2ccc(F)cc2)s1	-15	108	76	100
Cc1ccc(-n2ncc(C(=O)NCc3ccc4c(c3)OCO4)c2C2CCN(C(=O)OC(C)(C)C)CC2)c(C)c1	x	101	76	104
Cc1ccc(-c2ccc(N3CCCC(C(=O)NCCN4CCC(C)CC4)C3)nn2)cc1 (centres undefined)	-47	x	x	101
COCCN(CCOC)S(=O)(=O)c1ccc(C(=O)Nc2nc3ccc(Br)cc3s2)cc1	-16	x	x	104
Cn1c(SC/C([O-])=c2/sc3n(c2=O)c2ccccc2[n+]3C)nc2ccccc21	-19	91	92	x
CCCCN1CCn2c(nc3cc(NS(=O)(=O)c4ccc(Cl)cc4)ccc32)C1	-26	x	x	99
CCc1cc(=O)n2[nH]c(NCc3ccc(F)cc3)nc2n1	-4	x	x	102
COc1ccc(CC(=O)Nc2cc(-c3cn4cccnc4n3)ccc2OC)cc1	x	96	86	107
O=C(O)C1CCCCC1C(=O)NC1CCCCC1 (centres undefined)	10	114	116	104
CC(=O)N1c2ccc(S(=O)(=O)N3CCCC3C(=O)Nc3cccc(C)n3)cc2CC1C (centres undefined)	-30&-13	91	82	103&109
Cn1cc(C(=O)N/N=C/c2ccc3ncccc3c2)ccc1=O	-55	81	80	x
CC(C)c1ccc(NC(=O)c2ccc(F)c(S(=O)(=O)N3CCc4ccccc4C3)c2)cc1	x	119	87	102
CN(C)c1nc2ncnc(SCC(=O)Nc3ccc(F)cc3)c2s1	-25	x	x	114
CCOC(=O)Cn1nc(-c2ccccc2)ccc1=O	-34	86	92	93
COc1ccc(NCc2ccc3c(c2)OCO3)cc1	-3	102	87	100
COc1cccc(NC(=O)C2CCN(c3ccc(Sc4ccc(C)cc4)nn3)CC2)c1	0	92	88	101
COc1cc(OC)cc(-c2nc3nc(C)c(CCC(=O)Nc4ccc(Cl)cc4)c(C)n3n2)c1	-6	83	99	97
COc1ccc(-c2[nH]nc3c2C2(C(=O)Nc4ccc(Br)cc42)C(C#N)=C(N)O3)cc1OC (centres undefined)	-26	x	x	98
CCn1nnnc1SCC(=O)N1c2ccccc2CCc2ccccc21	-30	104	90	99
Cc1ccc(-c2csc(/N=C/c3cc(Br)ccc3O)n2)cc1	5	76	95	x
The list continues.
SMILES	HCMV UL50-53 inh	Sa growth inh	Sa growth inh second temp	GIV-Gai inh
Cn1ccc(-c2cccc(NC(=O)Nc3ccccc3)c2)n1	14	77	66	102
Cc1ccc(/C(O)=C/C(=O)C(=O)Nc2ccc(S(=O)(=O)N3CCOCC3)cc2)cc1C	x	94	84	103
CCC(Oc1ccc(F)cc1)C(=O)Nc1nc2c(s1)CCCC2 (centres undefined)	-14	104	86	98
O=C(OCN1C(=O)c2ccccc2C1=O)C1CCCN1S(=O)(=O)c1ccc(Cl)cc1 (centres undefined)	-42	108	93	x
CCOc1ccc(S(=O)(=O)N2CCN(c3ccc(C)cc3C)CC2)c2ccccc12	-16	104	91	105
O=C(Nc1cc(F)cc(F)c1)C1CCCN(c2ccnc(-c3ccc(F)cc3)n2)C1 (centres undefined)	-17	x	x	106
O=C(COC(=O)/C=C/c1ccco1)Nc1nc(-c2ccccc2)cs1	4	92	99	x
O=C(Nc1ccc(Br)cc1)c1cc(S(=O)(=O)NC2CCCC2)ccc1F	x	111	71	100
COCCn1c(SCC(=O)NN2C(=O)NC(C)(c3ccccc3)C2=O)nc2ccccc21 (centres undefined)	-14	93	92	x
COc1ccc(CCC(=O)c2ccc3c(c2)OCCO3)cc1	6	101	94	x
Cc1cc(C(=O)COC(=O)C2CC2C)c(C)n1-c1cccc(S(=O)(=O)N2CCOCC2)c1 (centres undefined)	-24	75	81	x
COc1ccccc1NC(=O)C(=O)NCCc1csc(-c2cccc(F)c2)n1	x	104	95	110
O=C(C1CCCCC1)N1CCc2ccccc21	-10	110	91	110
CCCCCCCn1c(=N)n(CC(=O)c2ccco2)c2ccccc21	-24	72	50	114
O=C(Nc1ccc(Cl)c(-c2nc3ncccc3o2)c1)c1ccc2c(c1)OCCO2	33	x	x	104
C=Cc1ccc(COC(=O)c2nnn(-c3ccc(OC)cc3)c2C)cc1	-6	x	x	102
Cc1cc(C)n(C(=O)C2=C(c3ccccc3)c3ccccc3S(=O)(=O)N2C)n1	-1	x	x	98
CC1(C)CC(=O)c2cc(C#N)c(SCSc3nc4c(cc3C#N)C(=O)CC(C)(C)C4)nc2C1	x	105	84	93
CC(C)NC(=O)CCn1c(=O)c2cccn2c2cccnc21	-29	99	90	105
COC(=O)c1ccc2c(c1)N(Cc1cc(C)ccc1C)C(=O)c1ccccc1S2(=O)=O	x	120	92	107
CN(CC(=O)Nc1ccc(Cl)cc1)S(=O)(=O)CCN1C(=O)NC2(CCCC2)C1=O	-10	92	80	x
CCSc1nccn2nc(-c3ccc(C)c(C)c3)cc12	-13	x	x	102
CCN(CC)S(=O)(=O)c1ccc(C(=O)OCCN2C(=O)c3cccc4c(N5CCCCC5)ccc(c34)C2=O)cc1	-36	x	x	116
O=C(NCCc1ccccc1)Nc1cnc2ccccn2c1=O	-74	100	88	98
CCOc1ccc(NC(=O)Nc2c(C)n(C)n(-c3ccccc3)c2=O)cc1	-11	111	90	104
(list continues)
SMILES	HCMV UL50-53 inh	Sa growth inh	Sa growth inh second temp	GIV-Gai inh
CCN(c1ccc(OC)cc1)S(=O)(=O)c1ccc2c(c1)CC(C)N2C(=O)C1CC1 (centres undefined)	x	97	91	98
Cc1cc(C)n(N)c(=O)c1C(=O)O	-11	98	93	108
CNCC(=O)N1CCN(C)CC1	6	109	95	x
COc1ccc(NC(=O)Cn2c(=O)n(Cc3nc(-c4ccccc4)no3)c(=O)c3cc4c(cc32)OCO4)c(OC)c1	x	103	97	103
C=CCn1c(SCC(=O)NCCCN2CCOCC2)nnc1-c1sc2ccccc2c1Cl	-16	105	80	106
Cc1cn2c(=O)cc(COc3ccccc3NC(=O)C(C)(C)C)nc2s1	0	x	x	108
Nc1sc2c(c1C(=O)NC1CCS(=O)(=O)C1)CCCC2 (centres undefined)	-32	77	77	117
O=c1cc(Nc2ccc3c(c2)OCCO3)[nH]c(=O)n1-c1ccc(Cl)cc1	0	99	67	99
